From PubChem
NPYLR7 ag = agonists of mosquito NPYLR7 receptor, primary screen, cell-based, Aedes aegypti, calcium fluorescence, mosquito biting behavior; Aedes aegypti neuropeptide Y-like receptor 7 (NPYLR7); HEK293T NPYLR7/Galpha15, GCaMP6s calcium fluorescence; activation, % at 10 µM; 0.15% of 270,000 active; AID 1259423, 2018; in the data active = activation above about 40%;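 note: 0% = vehicle and 100% = reference agonist at the receptor; some compounds past the cut are filed as inactive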
NPYLR7 ag max-min = also measured in NPYLR7 ag; calls as there; activation, %; measured here: Max-Min RFU normalised activation; some inactives read as strong as hits;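 span of the calcium signal over five minutes; 0% = vehicle and 100% = native peptide agonist; compound fluorescence can raise it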
Starred values were filed as active, the others as inactive; & = joins results of further samples. Only part of the results is shown; rates above refer to the full screens.

Sequence of screens – NPYLR7 ag, NPYLR7 ag max-min
(1) COCc1nc(C)nc(N2CCN(C(=O)C3CCC3)CC2)c1Cc1ccc(Cl)cc1
 : -7, 0
(2) CN(Cc1nc(-c2cccs2)no1)CC1Cc2ccccc2O1 (centres undefined)
 : -4, -7
(3) Cc1ccc(-n2ccnc2-c2ccncc2)cc1O
 : 2, 7
(4) Cc1ccc(-c2n[nH]c(=S)n2CC(=O)N2CCOCC2)cc1
 : -1, 12
(5) CCn1c(CC2CCN(Cc3cnc(-c4ccco4)nc3)CC2)n[nH]c1=O
 : -2, -7
(6) CC(=O)N1CCc2nc(C)nc(N(C)CCN3CCOCC3)c2CC1
 : 14, 1
(7) COc1ccc(-c2nn(-c3ccc(C)cc3C)c(OC(C)=O)c2-c2ccc(NC(=O)c3ccc(F)cc3)cc2)c(OC)c1
 : 13, 9
(8) CCn1cc(NC(=O)NCc2ccc(F)cc2)c2ccccc21
 : 3, 3
(9) CC(C)OC(=O)c1c(NC(=O)c2cc3nc(-c4ccccc4)cc(C(F)(F)F)n3n2)sc2c1CCCC2
 : -10, -14
(10) CCCC(C)NC(=O)c1cc(Cl)c[nH]1 (centres undefined)
 : 0, -2
(11) NC(=O)C1=NC2=NS(=O)(=O)c3ccccc3N2N1Cc1ccc(Br)cc1
 : 11, 7
(12) COc1cc(-c2nc(COC(=O)c3nnn(-c4ccc(C)cc4)c3C)c(C)o2)cc(OC)c1OC
 : -29, -35
(13) COc1cccc2cc(C(=O)Nc3c(F)cccc3F)c(=O)oc12
 : 5, 16
(14) O=C(CSc1nnc(-c2ccccc2)n1-c1ccccc1)N/N=C\C(Cl)=C\c1ccccc1
 : -5, -11
(15) CC(=O)Nc1ccc(S(=O)(=O)N2CCN(c3nccc(-c4cccc(C(F)(F)F)c4)n3)CC2)cc1Cl
 : 24, 6
(16) O=C(C1CCCC1)N(Cc1cccc(C(F)(F)F)c1)CC1CC(c2ccc(F)cc2F)=NO1 (centres undefined)
 : 0, 7
(17) Cc1cc(C)cc(N2CCn3c2nc2c3c(=O)n(Cc3ccc(F)cc3)c(=O)n2C)c1
 : 1, 31
(18) CCC(=O)NCCc1cc(Br)ccc1F
 : 11, 9
(19) CCS(=O)(=O)Oc1cc(CN(Cc2ccco2)C(=O)NC(C)C)ccc1OC
 : -3, 7
(20) CN(C)C(=NS(=O)(=O)c1ccc(Br)cc1)c1ccc(Cl)cc1
 : -7, -13

Next part; the last two above are carried over.
Sequence of screens – NPYLR7 ag, NPYLR7 ag max-min
(19) CCS(=O)(=O)Oc1cc(CN(Cc2ccco2)C(=O)NC(C)C)ccc1OC
 : -3, 7
(20) CN(C)C(=NS(=O)(=O)c1ccc(Br)cc1)c1ccc(Cl)cc1
 : -7, -13
(21) CSc1nnc2c(n1)OC(c1ccccn1)Nc1ccc(Br)cc1-2 (centres undefined)
 : 1, -2
(22) COc1ccc(C=CC(=O)c2ccc(C#N)cc2)cc1OC
 : -6, -7
(23) CCOC(CNC(=O)c1nn(-c2ccccc2C)c(=O)cc1OC)OCC
 : 3, 5
(24) COCCN(Cc1cc(NC(=O)C(C)C)ccc1N(C)C)C(=O)Nc1cccc(F)c1
 : 6, 6
(25) CCc1cccc(NC(=O)Nc2ccc(N3CCN(Cc4ccccc4)CC3)c(C(=O)NCCN3CCOCC3)c2)c1
 : 13, 6
(26) Cc1ccccc1CC1(CO)CCCN(c2nccc(N)n2)C1 (centres undefined)
 : 4, 6
(27) COc1cc(C)c(-c2c(-c3ccccc3)ncn2CC2COCCO2)cc1C (centres undefined)
 : -3&1, -4&-1
(28) CC(=O)c1ccc(NC(=O)c2[nH]c(C)c(C(C)=O)c2C)cc1
 : -6, -6
(29) CCCN(CC(=O)N(Cc1cccn1Cc1ccc(Br)cc1)C1CCCCC1)S(=O)(=O)c1ccc(F)cc1
 : -3, 6
(30) CCCSc1ncccc1C(=O)N(Cc1ccc(OC)cc1)Cc1nc2cc(C)ccc2o1
 : 5, 6
(31) CC1=C(C(=O)Nc2ccc(F)cc2)C(c2cccc(C)c2)n2nc(CCCO)nc2N1 (centres undefined)
 : 3, -1
(32) C=CCNC(CC(=O)Nc1ccc2ccccc2c1)C(=O)O (centres undefined)
 : -3, -4
(33) CC(C)N(CC(=O)N1CCc2sccc2C1c1ccc(Cl)cc1)C(=O)/C=C/c1ccccc1 (centres undefined)
 : 14, 9
(34) O=C1CCCN1CCCC(=O)N1CCOC(CC2CCCCC2)C1 (centres undefined)
 : 5, -4
(35) Cc1ccn2c(NC(C)(C)CC(C)(C)C)c(-c3ccccc3C)nc2c1
 : 3&10, 14&7
(36) CCOC(=O)C1=C(C)NC(=O)NC1c1c(Cl)nc2ccccn2c1=O (centres undefined)
 : 6, 5
(37) CCOC(=O)c1ccccc1NC(=O)C1CCN(c2ccc(-c3cccs3)nn2)CC1
 : -8, -16
(38) O=C(c1ccc(S(=O)(=O)N2CCCC2)cc1)N1CCc2ccccc2C1
 : -8, -11
(39) CCOC(=O)CCc1c(C)nc2ncnn2c1N1CCN(S(=O)(=O)Cc2ccccc2)CC1
 : -3, -7
(40) Cc1nn(C)cc1/C=N\NC(=O)c1cc(Cl)ccc1Cl
 : -1, -2

Record cards, as listed above. Screens in order: NPYLR7 ag, NPYLR7 ag max-min
Shown for C=CCNC(CC(=O)Nc1ccc2ccccc2c1)C(=O)O (centres undefined) → -3, -4
Shown for CC(C)OC(=O)c1c(NC(=O)c2cc3nc(-c4ccccc4)cc(C(F)(F)F)n3n2)sc2c1CCCC2 → -10, -14
Shown for CCn1cc(NC(=O)NCc2ccc(F)cc2)c2ccccc21 → 3, 3
Shown for COc1ccc(-c2nn(-c3ccc(C)cc3C)c(OC(C)=O)c2-c2ccc(NC(=O)c3ccc(F)cc3)cc2)c(OC)c1 → 13, 9

Later entries
Sequence of screens – NPYLR7 ag, NPYLR7 ag max-min
(41) Cc1ccc(C)c(S(=O)(=O)N2CCC(Cc3ccccc3)CC2)c1
 : 14, 7
(42) O=S(=O)(NCCOc1ccc(-c2cccs2)nn1)c1ccc(Cl)s1
 : 0, -1
(43) COc1ccccc1NC(=O)N1CCc2cc(OC)c(OC)cc2C1CNC(=O)C1CC1 (centres undefined)
 : 0, 3
(44) O=C(c1ccc(C(F)(F)F)cc1)N(CC(=O)N1CCc2sccc2C1c1ccc(Cl)cc1Cl)Cc1ccco1 (centres undefined)
 : 10, 5
(45) CCN(CC)S(=O)(=O)c1ccc(C(C)NC(=O)Cc2c(C)n[nH]c2C)cc1 (centres undefined)
 : 3, 9
(46) O=C(NCc1ccccn1)C1CCN(Cc2cc3n(n2)CCNC3)CC1
 : 3, 1
(47) COc1ccc(C2=NC(=Cc3ccc(OCc4csc(C)n4)c(OC)c3)C(=O)O2)cc1OC
 : 4, 2
(48) O=C(Cc1cc(Cl)c2c(c1)OCCO2)OCc1nc2sc3c(c2c(=O)[nH]1)CCC3
 : -2, 2
(49) COc1cc(NC(=O)c2cc(Cl)c3c(c2)OCO3)c(OC)cc1Cl
 : 3, 1
(50) CNC(=O)NC(=O)CSc1nc2sc3c(c2c(=O)n1C)CCCC3
 : -1, -4
(51) CCCCNC(=O)c1csc(CN(CCCC)C(=O)Nc2ccc(C(F)(F)F)cc2)n1
 : 1, -6
(52) CC(C)=CC(=O)N1CCCC(N2CCN(c3cccc(Cl)c3)CC2)C1 (centres undefined)
 : 2, 1
(53) Cc1cccc(COn2cccc(C(=O)Nc3cc(C(F)(F)F)cc(C(F)(F)F)c3)c2=O)c1
 : 11, 9
(54) COc1ccc(-c2ccc(C(=O)NCCc3ccccn3)c(NCC3CC3)n2)cc1
 : 5, -5
(55) CCCC(=O)Nc1oc2c(C)cccc2c(=O)c1-c1ccc(OC)cc1
 : 6, 2
(56) C=CC(=O)Nc1ccc2ncnc(Nc3cccc(Br)c3)c2c1
 : 2, -4
(57) CC(=O)Nc1ccc(SCCCC(=O)N2CCC(C(N)=O)CC2)nn1
 : 0, -1
(58) COc1ccc(C(=O)Nc2cccc(C3SCC(=O)N3c3cccc(F)c3C)c2)cc1 (centres undefined)
 : -3, 1
(59) CN(C)C1(CNC(=S)NC2CCCCC2)CCCCC1
 : -2, -4
(60) CCc1nc(CN2CCN(C(=O)Nc3cccc(C#N)c3)CC2)cs1
 : -4, -3

A draw from above in order of length of the SMILES, high to low.
Sequence of screens – NPYLR7 ag, NPYLR7 ag max-min
(47) COc1ccc(C2=NC(=Cc3ccc(OCc4csc(C)n4)c(OC)c3)C(=O)O2)cc1OC
 : 4, 2
(45) CCN(CC)S(=O)(=O)c1ccc(C(C)NC(=O)Cc2c(C)n[nH]c2C)cc1 (centres undefined)
 : 3, 9
(42) O=S(=O)(NCCOc1ccc(-c2cccs2)nn1)c1ccc(Cl)s1
 : 0, -1

(listing goes on)
Sequence of screens – NPYLR7 ag, NPYLR7 ag max-min
(61) O=C(c1cccnc1Oc1cccc([N+](=O)[O-])c1)N1CCC(O)(c2ccc(Cl)cc2)CC1
 : 2, -5
(62) CC(SCc1cc(=O)n2c([nH]c3ccccc32)c1C#N)C(=O)O (centres undefined)
 : 1, -1
(63) CCOC(=O)C1CCN(C(=O)CSc2nc(Cl)cc(N3CCN(C(=O)c4cccc(F)c4)C(C)C3)n2)CC1 (centres undefined)
 : -7, 2
(64) Cc1cc(=O)[nH]c(-n2nc(C)cc2NC(=O)/C=C/c2ccc3c(c2)OCO3)n1
 : 6, 1
(65) COc1cc(C=C2C=c3c(O)cccc3=C2O)cc(Cl)c1O
 : 203*, 183*
(66) CCN(C(=O)c1cccc(F)c1F)[C@@H]1CCN(C(=O)c2cccs2)C[C@H]1O
 : 17, 10
(67) O=C(CCc1ccccc1)NC1CCN(c2ccccc2C(=O)NCc2cccc(C(F)(F)F)c2)CC1
 : 26, 37
(68) O=C(NCc1ccccc1Cl)c1ccccc1N1CCCC1=O
 : 4, 2
(69) Cc1sc2nc(C3SC(c4ccccc4)(C(F)(F)F)NC3=O)[nH]c(=O)c2c1C (centres undefined)
 : 2, 2
(70) O=C(NCc1ccc(Cl)cc1)N1CCN(C(c2ccccc2)c2ccc(F)cc2)CC1 (centres undefined)
 : 6, 0
(71) O=C(Nc1cccc2cnccc12)N1CCC(OCc2ccccc2)CC1
 : 0, 7
(72) CCN1CCN(S(=O)(=O)CC23CCC(CC2=O)C3(C)C)CC1 (centres undefined)
 : 5, 4
(73) COc1cc(-c2nnc(SCCCC#N)o2)cc(OC)c1OC
 : -1, -1
(74) CN1C(=O)NC(c2ccc(F)cc2)C2=C1CN(CC(=O)Nc1ccccc1Cc1ccccc1)C2=O (centres undefined)
 : 0, 13
(75) COc1ccc(-c2nc(C)c(-c3ccc(SCC(=O)Nc4nccs4)nn3)s2)cc1
 : 3, 1
(76) CC(C)CC(=O)N1CCN(c2nc(CN3CCN(c4ccccc4Cl)CC3)cc(=O)[nH]2)CC1
 : 7, 4
(77) COc1ccccc1NC(=O)Cn1c(-n2nc(C)cc2C)nc2c(c1=O)CCCC2
 : -2, -3
(78) CC1(C(=O)NS(=O)(=O)c2ccc(F)cc2F)CCN1C(=O)Cc1cccc2ccccc12 (centres undefined)
 : -1, -3
(79) COC1CCCCC1NC(=O)N(C)Cc1ccncc1 (centres undefined)
 : -7, -7
(80) Cc1ccc(C(=O)Nc2ccc(N3CCN(C(=O)c4oc5ccccc5c4C)CC3)nc2)cc1
 : 12, 18
(81) O=S(=O)(c1cccc(Cl)c1Cl)N1CCN(Cc2nc(-c3ccccc3Cl)no2)CC1
 : -17, -17
(82) CC/C=C\CCCN1CCN(c2ncc(C)c(N)n2)CC1
 : 0, 0
(83) Cc1cccc(C(=O)N2CCN(c3ccc(C)c(Cl)c3)C(=O)C2C)c1 (centres undefined)
 : -1, -1
(84) Cc1ccc(N2C(=O)c3cccc4c(N5CCCCC5)ccc(c34)C2=O)cc1
 : -13, -15
(85) NC(=O)c1cccc(CC2CCN(C(=O)CCN3CCCCCC3=O)C2)c1 (centres undefined)
 : 15, 9
(86) NC(=O)C1CN(C(=O)CN2CCN(c3nccs3)CC2)c2ccccc2O1 (centres undefined)
 : 0, 0
(87) CCCOc1c(Br)cc(C(N)=O)cc1OCC
 : 8, 11
(88) S=c1nc[nH]c2ccccc12
 : 0, -1
(89) CCC(C(=O)Nc1ccc(-n2nc(OCC(C)C)nc2-c2ccccc2F)cc1)c1ccccc1 (centres undefined)
 : 2, 2
(90) CCCCCCCCCn1c(N2CCC(C(N)=O)CC2)nc2c1c(=O)[nH]c(=O)n2C
 : -1, 4
(91) CN(C)c1ccc(C2C3C(=O)CCCC3=Nc3ncnn32)cc1 (centres undefined)
 : 6, 2
(92) O=C(C=Cc1ccco1)Nc1sc2c(c1C(=O)O)CCCC2
 : -4, -6
